# PINK1 modulator – PINK1 expression modulation | PINK1 immunofluorescence, high-content cytometry, 24 h | 410,000 compounds, 0.2% hits | AID 624263 | Potency, µM (highest dose often 76.6 µM), for the others: top-dose activation (PINK1 increase), most hits filed as activators; active = well fitted activation curve with a large enough effect; inconclusive = small, poorly fitted or top-dose-only effect; inactive = flat fitted curve, though single readings scatter; cell line not stated here;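 further: potency means the concentration at half of the fitted maximal effect; % of control where 0% means no effect; nearly all actives have a fitted effect of over 65% in size; a mitochondrial uncoupler was the plate control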
#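 Decision-based qHTS: stable cells, 24 h exposure to five compound concentrations, CCCP as control. Fixed cells stained for PINK1 plus nuclear, mitochondrial and cell markers, cytometer read.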
# TRPML1 ag – activates the human TRPML1 channel; 410,000 compounds, 0.12% hits; AID 624414; Q9GZU1; activation, % (concentration not given with the values); TRPML1-expressing cells, Ca2+ dye fluorescence, FDSS; host cell line not named in the record; reference of the full effect not given here; in the data active = activation above about 50%; inconclusive = about 30% to 50%; inactive = below about 30%; further: 0% is about no effect; the text of the record puts the active cut at 80%
#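 Calcium fluorescence on an FDSS kinetic reader gave the read-out. Tet-induced TRPML1-DL cells were plated overnight, dye-loaded (Ca8 with quencher, 45-90 min, room temperature, dark), then read 110 s after compound addition, and again 110 s after 4uM final 54-4 (EC80).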
# Six1-Eya2 blk – Six1/Eya2 interaction inhibition; AID 651725; Q15475+O00167; 360,000 compounds, 0.56% hits; AlphaScreen GST-Six1/His-Eya2 binding, biochemical; active compounds read low; control for the full effect not named in the record; activity change, % (no concentration beside the values); in the data active = activity change below about -65%; inconclusive = about -30% to -65%; inactive = above about -30%; further: on the % scale 0 is the no-effect control and ±100 the full control effect
# Target sequence (O00167 whole entry, looked up): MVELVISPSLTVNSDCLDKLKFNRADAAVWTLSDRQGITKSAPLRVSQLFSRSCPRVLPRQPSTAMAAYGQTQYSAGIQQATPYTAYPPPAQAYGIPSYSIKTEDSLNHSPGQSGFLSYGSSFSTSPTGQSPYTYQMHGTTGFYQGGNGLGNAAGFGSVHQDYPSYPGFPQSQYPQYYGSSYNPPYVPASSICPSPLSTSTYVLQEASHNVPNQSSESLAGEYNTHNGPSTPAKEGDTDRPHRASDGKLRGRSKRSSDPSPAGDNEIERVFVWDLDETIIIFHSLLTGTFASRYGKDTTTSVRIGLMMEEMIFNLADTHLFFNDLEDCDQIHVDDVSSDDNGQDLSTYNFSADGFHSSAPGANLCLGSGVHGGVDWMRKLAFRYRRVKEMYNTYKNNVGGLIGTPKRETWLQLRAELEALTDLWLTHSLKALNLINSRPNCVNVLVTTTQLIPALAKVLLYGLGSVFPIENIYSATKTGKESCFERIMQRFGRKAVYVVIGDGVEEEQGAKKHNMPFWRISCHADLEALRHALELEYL
# Target sequence (Q15475 whole entry, looked up): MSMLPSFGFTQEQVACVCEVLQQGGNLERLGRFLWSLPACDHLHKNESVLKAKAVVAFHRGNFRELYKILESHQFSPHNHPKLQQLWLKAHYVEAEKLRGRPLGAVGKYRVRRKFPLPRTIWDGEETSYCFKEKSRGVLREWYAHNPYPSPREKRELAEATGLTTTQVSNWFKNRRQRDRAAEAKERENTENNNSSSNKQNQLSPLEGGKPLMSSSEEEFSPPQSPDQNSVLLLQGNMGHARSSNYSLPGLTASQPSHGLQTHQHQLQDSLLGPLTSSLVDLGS
#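 Six1/Eya2 binding was read as AlphaScreen signal after compounds were pinned into GST-Six1 plus His-tagged Eya2 (5X stock 250/500 nM) in pH 8.0 Tris/NaCl/TCEP buffer, beads added, then incubated 1 h, 37 C, dark.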
# D2 PAM – human D2 receptor positive allosteric modulation; P14416; DiscoveRx D2 beta-arrestin cells, luminescence, 90 min; 100% = 57 uM dopamine signal; potentiation, % (test concentration not listed); 360,000 compounds, 0.23% hits; active = potentiation of 50% or more; inconclusive = 30% to 50%; inactive = 30% or less;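 further: compound concentration not given in the record; tested on top of an EC20 dose of dopamine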
#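 PathHunter D2 cells, attached overnight at 37 deg C, received compound in DMSO plus dopamine at EC20 (50 nM final) for 90 min at 37 deg C. Beta-arrestin recruitment was read as luminescence after 1 h with detection reagent at ambient temperature.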
# CtBP-E1A inh – blocks the CtBP interaction with E1A. AlphaScreen GST-E1A/His-CtBP binding, 1536-well; active compounds read low; control for the full effect not named in the record. activity change, % (concentration not given with the values). 340,000 compounds, 0.49% hits. AID 651724; in the data active means activity change below about -65%; inconclusive means about -30% to -65%; inactive means above about -30%; further: on the % scale 0 is the no-effect control and ±100 the full control effect
#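 GST-E1A and His-tagged CtBP (125 nM each as 5X stock) were preincubated with pin-transferred compound for 2 h at 37 °C in the dark, then glutathione donor and nickel acceptor beads were added for 1 h before AlphaScreen reading.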
# D2 ag – human D2 receptor agonism in beta-arrestin assay; P14416; DiscoveRx PathHunter D2 beta-arrestin, luminescence, 90 min; 100% = 57 uM dopamine signal; activation, % (concentration not given with the values); 360,000 compounds, 0.084% hits; AID 624465; in the data active = activation above about 40%; inconclusive = about 15% to 40%; inactive = below about 15%; further: the text of the record calls up to 30% inactive
#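 Agonist mode: compounds alone added to overnight-plated D2 PathHunter cells for 90 min at 37 C, with 57 uM final dopamine (EC100) defining full response. Beta-arrestin recruitment detected by chemiluminescent reagent, read after 1 h at ambient temperature.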
# An asterisk follows results filed as active; ? = inconclusive; . = no result given; & = joins results of further samples; [ ] = another dose, or the depositor's remark.
molecule	PINK1 modulator	TRPML1 ag	Six1-Eya2 blk	D2 PAM	CtBP-E1A inh	D2 ag
O=C(Cn1cnc2c(oc3ccccc32)c1=O)N1CCCC1	0.9%	-0.6	6	-6	-5	-5.8
O=C(CCN1C(=O)C2C3C=CC(C3)C2C1=O)N1CCN(c2ccc([N+](=O)[O-])cc2)CC1 (configuration not stated)	-1.2%	2.6	2	-2	1	-4.5
Cc1ccc(S(=O)(=O)N2CCC(C(=O)OCc3ccc([N+](=O)[O-])cc3)CC2)cc1	1.4%	1.8	-6	10	-3	-1.3
CS(=O)(=O)N(CC(=O)N1CCOCC1)c1cccc(Cl)c1Cl	0.1%	0.0	0	-4	4	-1.2
COc1cc(C(=O)Nc2ccc(NC(=O)C3CCCCC3)nc2)cc(OC)c1OC	3.0%	-0.3	-19	-13	-9	-2.3
O=C(Cc1ncc(C(F)(F)F)cc1Cl)NCCc1ccccc1	0.0%	-1.1	0	-4	3	-2.8
O=C(NCc1ccc(Cl)cc1)c1cc2c(nc3sccn32)s1	-1.4%	1.8	-13	-20	-17	-0.2
CC1CC(C)CN(C(=O)c2cc(S(=O)(=O)N3CCCCC3)ccc2Cl)C1 (configuration not stated)	5.6%	2.0	22	1	0	2.7
COC(=O)c1cc(NC(=O)c2cc(-c3ccc(OC)cc3)oc2C(F)(F)F)ccc1N1CCOCC1	-1.8%	1.5	-7	-4	-11	-4.2
Cn1cnc([N+](=O)[O-])c1SCC(O)CCl (configuration not stated)	0.8%	0.4	5	0	-6	0.6
Cc1ccccc1OC(=O)C1C(c2ccccc2)C(C(=O)O)C1c1ccccc1 (configuration not stated)	2.2%	-0.9	4	-5	2	-2.4
COc1ccc(CCNc2nc(N3CCCCC3)nc(N3CCCCC3)n2)cc1OC	13%	2.8	-19	-43	-9	-6.8
O=C1/C(=C\c2ccc(-c3ccccc3[N+](=O)[O-])o2)C(c2ccccc2)=NN1c1ccccc1	-1.7%	0.0	-3	-10	0	-3.4
O=C(NCC(=O)N(c1ccccc1)C(C(=O)NC1CCCCC1)c1ccncc1)c1ccco1 (configuration not stated)	-1.0%	-0.9	2	-10	-3	-0.2
COc1ccccc1N(CC(=O)N1CCCCC1C)S(=O)(=O)c1ccc(Cl)cc1 (configuration not stated)	1.0%	2.6	12	-15	-4	2.3

# 4 compounds from above, sorted by the number in PINK1 modulator, ascending:
Molecule	PINK1 modulator
O=C(NCc1ccc(Cl)cc1)c1cc2c(nc3sccn32)s1	-1.4%
O=C(CCN1C(=O)C2C3C=CC(C3)C2C1=O)N1CCN(c2ccc([N+](=O)[O-])cc2)CC1 (configuration not stated)	-1.2%
Cn1cnc([N+](=O)[O-])c1SCC(O)CCl (configuration not stated)	0.8%
Cc1ccccc1OC(=O)C1C(c2ccccc2)C(C(=O)O)C1c1ccccc1 (configuration not stated)	2.2%

# The list goes on:
molecule	PINK1 modulator	TRPML1 ag	Six1-Eya2 blk	D2 PAM	CtBP-E1A inh	D2 ag
S=C(Nc1ccccc1)N1CCCCC1	2.9%	-0.4	-1	3	-5	-0.1
COc1cc(/C=C/c2ccc3cccc([N+](=O)[O-])c3n2)ccc1OCC#N	3.2%	-0.7	-20	4	-24	10
COc1ccc(CCCC(=O)Nc2cc(C)ccc2OC)cc1	2.2%	1.5	0	-3	14	-6.4
CNc1c([N+](=O)[O-])cnn1-c1ccccn1	1.0%	-0.8	18	-4	.	2.7
CC1(C(=O)c2ccccc2)C2c3c(ccc4ccccc34)OC(=O)C21C(=O)N1CCOCC1 (configuration not stated)	1.6%	-0.3	-21	-8	-12	-1.5
O=c1[nH]c(C2CCN(S(=O)(=O)c3ccccc3)CC2)nc2c1nnn2Cc1ccc2c(c1)OCCO2	-0.6%	1.9	2	3	.	-1.2
CCOC(=O)c1c(C)[nH]c(C(C)=NNC(=O)Cn2nc(C)cc2C)c1C	3.6%	-0.7	-10	-8	.	2.8
O=C(CN1C(=O)NC2(CCCCC2)C1=O)NCCc1c[nH]c2ccccc12	-0.9%	-0.2	-1	11	3	0.2
CCN(CC(=O)Nc1ccccc1C(F)(F)F)C(=O)c1cc(S(=O)(=O)N(C)C)ccc1N1CCCC1	0.6%	-0.2	2	2	5	3.7
Brc1ccc2c(c1)CN1CCCC1=N2	1.4%	2.4	-18	-10	.	-5.0
COc1ccc(Cc2c(-c3ccco3)nc3c(C)cc(Br)cn23)c(C)c1	?	-0.5	-1	-4	2	1.0
CC(C)NC(=O)Nc1ccc2c(c1)C(=O)N([C@H](C)CO)C[C@H](C)[C@@H](CN(C)C(=O)Nc1ccccc1)O2	0.4%	-0.2	-10	-5	-11	-4.7
CCCNC(=O)c1cc(C2CCCN(S(=O)(=O)c3ccccc3)C2)on1 (configuration not stated)	-0.5%	-0.1	-1	-10	1	-2.8
COc1ccccc1NC(=O)CCCn1c(=S)[nH]c2ccccc2c1=O	3.9%	-0.7	13	0	.	-3.1
CCOc1ccc(NC(=O)CN(C)C(=O)c2ccc(N3CCCCCC3)c([N+](=O)[O-])c2)cc1OCC	0.0%	1.3	-26	-2	-3	-4.2
C#CCOc1ccc(/C=N/O)cc1Cl	-2.4%	-0.1	13	-16	0	-4.3
CCOc1ccc(N(CC(=O)Nc2ccc(OC)cc2)C2=NC3CS(=O)(=O)CC3S2)cc1 (configuration not stated)	2.2%	-0.8	6	-8	3	-7.5
O=C(c1ccccc1Nc1ccc(SC(F)F)cc1)N1CCCCC1	-0.6%	1.7	-7	-2	-13	-6.8
CCCC(=O)NCCc1nc2ccccc2n1CCC	1.1%	0.0	3	-9	-1	-3.4
O=C(COC(=O)/C=C/c1ccco1)Nc1cccc([N+](=O)[O-])c1	3.8%	1.5	8	-7	7	-0.7
O=C(CCNC(=O)c1ccco1)NNC(=O)c1ccc(Br)cc1	0.7%	0.3	-7	-2	-20	-1.8
COc1ccccc1NC(=O)CSc1ccc(-c2ccccn2)nn1	1.6%&0.5%	-0.8&-0.1	-89*	4	-90*	-3.1
CC1(C(=O)NS(=O)(=O)c2cccc(Cl)c2)CCN1C(=O)CCc1cccs1 (configuration not stated)	0.5%	-0.9	10	1	8	-4.2
Cc1nc(N)c(C#N)c(-c2ccccc2)c1C	-0.9%	2.8	12	9	6	-1.9
COC(=O)[C@@]12CCCCN1[C@H](c1ccc(-c3ccc(C(C)=O)cc3)cc1)[C@H]1C(=O)N(C)C(=O)[C@H]12	-0.3%	0.3	1	-9	0	-1.5
CCc1ccc(S(=O)(=O)c2ccc(-n3nc(C)cc3N)cc2)cc1	1.2%	-0.8	6	-8	0	-0.4
C=CCOc1c(CNn2nnnc2N)cccc1OC	-1.2%	-0.3	2	3	3	-1.0
CN(Cc1cccnc1)C(=O)CNC(=O)c1ccc(Cl)cc1Cl	2.3%	0.0	9	-5	0	1.4
COCc1cc(=O)[nH]c2cc(NC(=O)C3CC3)c(C)cc12	0.5%	-0.1	-1	21	4	-0.1
COCCN1C(=O)c2oc3ccccc3c(=O)c2C1c1ccc(OC)c(OC)c1 (configuration not stated)	-0.2%	0.8	-10	-1	4	-2.3

# Limited to TRPML1 ag, for 2 of the compounds above:
compound | TRPML1 ag
CS(=O)(=O)N(CC(=O)N1CCOCC1)c1cccc(Cl)c1Cl | 0.0
COc1cc(C(=O)Nc2ccc(NC(=O)C3CCCCC3)nc2)cc(OC)c1OC | -0.3

# Additional structures
molecule	PINK1 modulator	TRPML1 ag	Six1-Eya2 blk	D2 PAM	CtBP-E1A inh	D2 ag
COc1ccc2[nH]cc(C(O)CN3CCC(C(N)=O)CC3)c2c1 (configuration not stated)	-0.5%	0.2	4	-4	6	-2.8
COc1ccc(NC(=O)C2(C)Cc3c(-c4ccc(C(N)=O)cc4)ccnc3O2)cc1OC (configuration not stated)	0.2%	-0.2	-1	0	-9	-2.1
O=C(CSc1nnc(-c2ccccc2F)n1C1CC1)Nc1cccnc1Cl	-0.8%	-0.5	1	-8	2	-1.0
O=C(O)c1ccc(/C=N/NC(=O)c2ccc(F)cc2)cc1	-1.3%	0.0	9	-2	0	-0.7
O=C1c2cccc3c(O)ccc(c23)C(=O)N1Cc1ccco1	3.4%	99*	-5	29	-3	12
CC(C)CC(C(=O)NC(=O)NCc1ccccc1)N1C(=O)c2ccccc2C1=O (configuration not stated)	5.7%	0.4	-3	-6	0	-3.4
O=C(COc1ccc(Cl)cc1)Nc1ncccn1	-1.7%[38.3 µM]	-0.5	4	-19	4	-1.4
O=C(NC1CC1)C1=C[C@H](c2ccc(C(F)(F)F)cc2)C[C@H](OCCCCO)O1	0.4%	1.0	1	-5	-17	-2.0
Cc1ccn2c(=O)nc(SCC(=O)N3CCCCC3)nc2c1	3.5%	0.5	8	-8	-16	6.3
O=C(NC1CCCC1)C1CC(=O)N(c2ccc(F)cc2)C1 (configuration not stated)	-0.3%	-0.3	-4	-2	-2	-2.9
O=C1/C(=C/C=C/c2ccccc2)Oc2c1ccc(O)c2CN1CCN(CCO)CC1	0.5%	11	3	-12	-1	-3.4
Cc1ccccc1NC(=O)C1CCN(c2cc(-c3ccccc3)nc3ncnn23)CC1	0.8%	0.1	-3	-9	7	-2.6
CC1CC(C)CN(c2ncnc3c2cnn3Cc2ccc(Cl)cc2)C1 (configuration not stated)	1.5%	2.7	2	-6	13	-1.9
CC1CN(C(=O)COC(=O)/C=C/c2cccc([N+](=O)[O-])c2)CC(C)O1 (configuration not stated)	1.3%	0.2	-4	-5	1	-1.0
CC(C)c1nnc(NC(=O)C2CC(=O)N(CCc3ccc(F)cc3)C2)s1 (configuration not stated)	1.2%	-0.1	11	0	2	-0.8
CC(OC(=O)Cc1ccc(F)cc1)C(=O)N1CCc2ccccc21 (configuration not stated)	-1.4%	1.1	1	-23	19	-4.9
COc1ccc(C(=O)Nc2ccccc2C(=O)Nc2ccccn2)cc1	-0.4%	-0.1	5	-3	-1	-2.4
Cc1ccc(C)c(NC(=O)c2cc(S(=O)(=O)N3CCOCC3)cn2C)c1	-0.6%	-0.3	2	-1	-18	-3.8
Cc1ccc(-c2csc3nc4c5ccccc5c(NCCCN(C)C)nn4c(=O)c23)cc1	0.3%	-0.6	-67*	-15	?	-2.2
COc1ccc(C(C#N)CC(=O)c2ccc(OCc3ccccc3)c(OC)c2)cc1OC (configuration not stated)	-1.2%	2.1	-12	1	1	-0.9
CC(C)c1ccc(NC(=O)CSc2nnc(CN3CCOCC3)n2C)cc1	1.1%	0.7	4	2	25	-2.1
C/C(=N\Nc1nccnc1Cl)c1c(F)c(F)c(F)c(F)c1F	-0.2%	-0.9	-3	-3	3	13
COC(=O)C1=CN(Cc2ccc(OC)c(OC)c2)C=C(C(=O)OC)C1c1cccc(F)c1	-3.6%	4.2	31	9	48	8.1
CC1(/[N+]([O-])=C/c2cccc(Cl)c2)CCCCC1=O (configuration not stated)	0.8%	0.2	-1	-17	.	-2.5
CCNc1nc2c(c(=O)[nH]c(=O)n2C)n1CC(C)C	0.7%	-0.7	-12	-3	1	-2.9

# Screening results (PubChem)
